MT1-MMP act inh – MT1-MMP (human) activation inhibition; HT1080 RFP-PRO-GFP cells, GFP/RFP ratio fluorescence, overnight; percent of plate control window, DMSO zero; P50281; AID 651647; GFP/RFP ratio change, % at 20 µM; 360,000 tested, 0.061% active;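 active means GFP/RFP ratio change of at least 30% with cell ATP level not reduced by more than half and red fluorescence within 50% of control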; further: strong numbers were not always called active
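Assay system: RFP-PRO-GFP reporter HT1080 cells; read-out basis: GFP/RFP fluorescence ratio; benchmarks: DMSO wells and RFP-L50D-GFP cells; doses: 20 µM single dose, 1% DMSO; schedule: overnight cell settling, then overnight compound exposure, 37 °C, 5% CO2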
HIV Env fusion – blocks HIV Env-driven cell-cell fusion; 360,000 tested, 1.1% active; inhibition, % at 12.3 µM; HeLa-JRFL Env/CEM21 cell fusion, luciferase; AID 651610;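 active means mean replicate inhibition score of at least 50 and every replicate individually at or above 50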;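 further: 0% = plate neutral controls and 100% = maraviroc near 300 nM; one replicate is shown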
PABP polyA inh – blocks human PABP binding to poly(A) RNA. AID 2014. inhibition, % at 35 µM. P11940. 290,000 tested, 1% active. fluorescence polarization;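 active means 50% or more with normal probe brightness, or confirmed in later tests; about a fifth of its hits are not listed in these tables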;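 further: calls also rest on retests at 20 µM and on dose response follow-up; controls were probe without protein and protein plus probe with vehicle; some compounds called inactive have numbers as strong as hits; many hits fall short of the cut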
Target sequence (P11940 whole entry, looked up): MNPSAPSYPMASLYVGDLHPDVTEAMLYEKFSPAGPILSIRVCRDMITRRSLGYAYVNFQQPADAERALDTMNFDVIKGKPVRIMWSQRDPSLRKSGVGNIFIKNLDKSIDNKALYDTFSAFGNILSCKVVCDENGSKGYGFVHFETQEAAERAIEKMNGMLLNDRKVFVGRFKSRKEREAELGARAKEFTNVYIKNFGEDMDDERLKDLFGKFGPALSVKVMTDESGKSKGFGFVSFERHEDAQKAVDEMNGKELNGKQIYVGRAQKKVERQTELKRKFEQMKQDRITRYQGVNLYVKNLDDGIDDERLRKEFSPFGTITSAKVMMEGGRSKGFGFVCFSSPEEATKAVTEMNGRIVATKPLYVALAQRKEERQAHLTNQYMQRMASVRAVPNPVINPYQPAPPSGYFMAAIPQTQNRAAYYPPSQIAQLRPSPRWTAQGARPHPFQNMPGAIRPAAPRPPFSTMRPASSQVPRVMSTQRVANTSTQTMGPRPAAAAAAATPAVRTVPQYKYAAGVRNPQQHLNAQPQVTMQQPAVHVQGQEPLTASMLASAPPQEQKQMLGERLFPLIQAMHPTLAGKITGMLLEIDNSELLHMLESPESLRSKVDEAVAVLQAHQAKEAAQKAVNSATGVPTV
Yeast UUG start – yeast start codon fidelity modulation; S. cerevisiae UUG-firefly luciferase reporter, luminescence/redox ratio; activity score, % at 18.7 µM; 350,000 tested, 0.13% active; AID 602363;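 active means replicate mean at a twofold rise or more, about +100% in these data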;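 further: firefly luciferase made from a UUG start codon reports start codon fidelity; reporter light over untreated wells divided by growth signal over untreated wells; some hits fall short of that in this replicate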
Rce1 inhib – yeast Ras-converting enzyme inhibition | Q03530 | yeast membranes, quenched prenylated peptide cleavage fluorescence | calls only | 290,000 tested, 0.27% active | AID 2563;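 active means fall in fluorescence gain of 50% or more versus controls, with final raw signal at or below 3038400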;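 further: plate controls were neutral control wells for no effect and wells lacking membranes for full effect; tested at 10 µM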
Target sequence (Q03530 whole entry, looked up): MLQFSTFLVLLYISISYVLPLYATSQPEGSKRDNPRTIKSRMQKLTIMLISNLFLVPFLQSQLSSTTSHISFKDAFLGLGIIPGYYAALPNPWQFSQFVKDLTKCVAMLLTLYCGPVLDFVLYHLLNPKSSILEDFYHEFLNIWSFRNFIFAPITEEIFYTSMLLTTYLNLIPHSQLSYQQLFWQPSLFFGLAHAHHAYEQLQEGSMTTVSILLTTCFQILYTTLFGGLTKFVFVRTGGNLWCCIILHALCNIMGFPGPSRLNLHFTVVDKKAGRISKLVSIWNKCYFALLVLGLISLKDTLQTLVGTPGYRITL
eIF4H FP inh – inhibitors of RNA binding by human eIF4H; AID 2012; inhibition, % at 35 µM; eIF4H fluorescence polarization binding assay; Q15056; 290,000 tested, 0.94% active;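 active means 50% or more with normal probe brightness, or confirmed in later tests; about a fifth of its hits are not listed in these tables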;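 further: calls also rest on retests at 20 µM and on dose response follow-up; 0% = protein and probe with vehicle and 100% = probe without protein; strong numbers were not always called active; many hits fall short of the cut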
CSC inhib – cancer stem cell inhibition; cancer stem cell-like cells viability, luminescence; inhibition, % at 7.5 µM; 300,000 tested, 1.1% active; AID 2717;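 active means mean at 75% or more and at least half the replicates too; tested in HMLE shEcad cells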;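 further: 0% = median of negative and 100% = median of positive control wells; the first replicate is given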
eIF4H FP inh retest – also measured in eIF4H FP inh; calls as there; inhibition, %; compound at 20 µM; confirmation average;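 mean of two retest wells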
PABP polyA inh retest – further read-out of PABP polyA inh, marked with its call; inhibition, %; compound at 20 µM; confirmation repeats;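 mean of two retest wells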
MT1-MMP act inh RFP – second read-out of MT1-MMP act inh, no call of its own (marks repeat the call); RFP signal change, %; measured here: RFP expression control read;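 0 = vehicle wells; hits needed this value within 50% of zero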
* = called active by the depositor.

CCC[N+](CC#Cc1ccccc1)(CCC)CC(=O)OC was read as MT1-MMP act inh -2, HIV Env fusion -2, PABP polyA inh -8, Rce1 inhib inactive, eIF4H FP inh -3, CSC inhib -6 and MT1-MMP act inh RFP 2.
`CCCCCCC(O)(c1ccccc1)C(CN1CCOCC1)c1ccccc1` (stereo not drawn) gave MT1-MMP act inh -27, HIV Env fusion 23, PABP polyA inh 2, Yeast UUG start -1, Rce1 inhib inactive, eIF4H FP inh 10, CSC inhib 13 and MT1-MMP act inh RFP -21.
Screening COc1ccc2c(c1)c(=O)oc1cc3occ(C(C)(C)C)c3cc12 returned MT1-MMP act inh 5, HIV Env fusion -83, PABP polyA inh 5, Yeast UUG start -14, Rce1 inhib inactive, eIF4H FP inh 2, CSC inhib -7 and MT1-MMP act inh RFP 2.
Screening CCn1c(Cc2cccn2C)nnc1SCC(=O)c1ccc(C)cc1 returned MT1-MMP act inh 2, PABP polyA inh 8, Yeast UUG start -25, Rce1 inhib inactive, eIF4H FP inh -2, CSC inhib 5 and MT1-MMP act inh RFP 1.
`Cn1c(NC(=O)c2ccc(Cl)cc2)c(-c2ccccn2)c(=O)c2ccccc21` gave MT1-MMP act inh 9, HIV Env fusion -18, PABP polyA inh -3, Yeast UUG start -6, Rce1 inhib inactive, eIF4H FP inh 3, CSC inhib -8 and MT1-MMP act inh RFP 3.
COCCn1c(=O)[nH]c(=O)c2cc(C(=O)c3cc(Cl)ccc3O)cnc21 was read as MT1-MMP act inh 4, PABP polyA inh -6, Rce1 inhib inactive, eIF4H FP inh 1, CSC inhib -5 and MT1-MMP act inh RFP 6.
CCN1CC(CN(C)Cc2nc(-c3ccc(Cl)cc3)no2)CC1=O (stereo not drawn) was read as MT1-MMP act inh -3, HIV Env fusion 3, PABP polyA inh -1, Yeast UUG start -3, Rce1 inhib inactive, eIF4H FP inh 6, CSC inhib -11 and MT1-MMP act inh RFP -18.
Screening Cc1ccnc(NC(=O)c2ccc3c(c2)C(=O)N(CCC(C)C)C3=O)c1 returned MT1-MMP act inh -5, HIV Env fusion 8, PABP polyA inh -8, Yeast UUG start -6, Rce1 inhib inactive, eIF4H FP inh -8, CSC inhib 9 and MT1-MMP act inh RFP -3.
Screening COc1ccc(-c2nc3cc(C)c(Br)c(C)n3c2CC(C)(C)C)cc1OC returned MT1-MMP act inh -8, HIV Env fusion 0, Yeast UUG start -8 and MT1-MMP act inh RFP -5.
`COc1ccccc1NS(=O)(=O)c1cccc(NC(=O)c2[nH]c(C)c(C(C)=O)c2C)c1` gave MT1-MMP act inh 3, HIV Env fusion 28, PABP polyA inh 4, Rce1 inhib inactive, eIF4H FP inh -8, CSC inhib -5 and MT1-MMP act inh RFP -10.
For Nc1c(C(=O)NCc2ccc(Cl)cc2)sc2nc3c(c(C(F)(F)F)c12)CCC3 the results were MT1-MMP act inh -1, HIV Env fusion -14, PABP polyA inh 2, Yeast UUG start -11, Rce1 inhib inactive, eIF4H FP inh 6, CSC inhib 41 and MT1-MMP act inh RFP -3.
For COc1ccc(CNC(=O)C2CCN(C(=O)c3ccc(F)cc3)CC2)cc1OC the results were MT1-MMP act inh 0, HIV Env fusion 2, Yeast UUG start -5 and MT1-MMP act inh RFP -1.
CCN(CC)C(=O)Cn1cc(S(=O)(=O)CC(=O)NCc2ccc(F)cc2)c2ccccc21 was read as MT1-MMP act inh -2, HIV Env fusion 0, PABP polyA inh 9, Yeast UUG start 35, Rce1 inhib inactive, eIF4H FP inh -4, CSC inhib -10 and MT1-MMP act inh RFP 1.
For CCOC(=O)CC1C(=O)NCCN1Cc1cccc(C(F)(F)F)c1 (stereo not drawn) the results were MT1-MMP act inh -1, HIV Env fusion -2, PABP polyA inh 8, Yeast UUG start -19, Rce1 inhib inactive, eIF4H FP inh 2, CSC inhib -15 and MT1-MMP act inh RFP 3.
For O=C(Cn1c(COc2ccc(Cl)cc2)nc2ccccc21)NCC(F)(F)F the results were MT1-MMP act inh 0, HIV Env fusion -31, PABP polyA inh 12, Rce1 inhib inactive, eIF4H FP inh 2 and MT1-MMP act inh RFP -1.
Screening COc1cc(C)ccc1OCCCOc1cc(C)ccc1Cl returned MT1-MMP act inh 2, Yeast UUG start -17, Rce1 inhib inactive, CSC inhib -5 and MT1-MMP act inh RFP -2.
`CC(=O)Nc1sc(C)c(C)c1C(=O)OCC(=O)Nc1cc(S(=O)(=O)N2CCCCC2)ccc1Cl` gave MT1-MMP act inh -1, HIV Env fusion -3, PABP polyA inh 15, Yeast UUG start -15, Rce1 inhib inactive, eIF4H FP inh -6, CSC inhib -5 and MT1-MMP act inh RFP 1.
`COc1ccc(S(=O)(=O)c2ccc(OC)c(OC)c2)cc1OC` gave MT1-MMP act inh -1, PABP polyA inh -8, Yeast UUG start -10, Rce1 inhib inactive, eIF4H FP inh -1, CSC inhib -7 and MT1-MMP act inh RFP -3.
For CCc1ccc(-c2nc3ccc(Br)cc3c(C(=O)O)c2C)s1 the results were MT1-MMP act inh 3, HIV Env fusion 11, PABP polyA inh 13, Rce1 inhib inactive, eIF4H FP inh 3, CSC inhib 7 and MT1-MMP act inh RFP 2.
For O=c1cc(-c2ccccc2)[nH]c2ccc(F)cc12 the results were MT1-MMP act inh 9, HIV Env fusion -5, PABP polyA inh 4, Yeast UUG start -17, Rce1 inhib inactive, eIF4H FP inh 0, CSC inhib -1 and MT1-MMP act inh RFP 0.
`CCCCNC(=O)CCN1N=C(c2ccccc2)CCC1=O` gave MT1-MMP act inh -4, HIV Env fusion 0, PABP polyA inh 1, Yeast UUG start 10, Rce1 inhib inactive, eIF4H FP inh -5, CSC inhib -19 and MT1-MMP act inh RFP -2.
O=C(NNC(=O)c1cccnc1)NC1CCCCC1 was read as MT1-MMP act inh 2, HIV Env fusion -10, PABP polyA inh -12, Rce1 inhib inactive, eIF4H FP inh -5, CSC inhib -5 and MT1-MMP act inh RFP 4.
For COc1cc(CN2CCN(Cc3ccccc3C(F)(F)F)CC2)cc(OC)c1OC the results were MT1-MMP act inh 1, HIV Env fusion -9, PABP polyA inh 14, Yeast UUG start -3, Rce1 inhib inactive, eIF4H FP inh 8, CSC inhib 53 and MT1-MMP act inh RFP 1.
`CC(=O)C1=C(O)C(=O)N(CCCn2ccnc2)C1c1ccc(Br)cc1` (stereo not drawn) gave MT1-MMP act inh 2, HIV Env fusion 8, PABP polyA inh 7, Yeast UUG start -16, Rce1 inhib inactive, eIF4H FP inh -2, CSC inhib -5 and MT1-MMP act inh RFP 3.
Screening CC(C)c1ccc(S(=O)(=O)N2CCN(CC(=O)Nc3ccc(Cl)cc3F)CC2)cc1 returned MT1-MMP act inh -9, HIV Env fusion 10, Yeast UUG start -13, CSC inhib -13 and MT1-MMP act inh RFP -12.
For CCOC(=O)CCn1c(=O)c2c(nc(Br)n2Cc2ccccc2)n(C)c1=O the results were MT1-MMP act inh 1, PABP polyA inh 7, Yeast UUG start 10, Rce1 inhib inactive, eIF4H FP inh -3, CSC inhib -9 and MT1-MMP act inh RFP -1.
`O=C(c1ccccc1)N(Nc1ccccc1)c1ccccc1` gave MT1-MMP act inh -5, HIV Env fusion 18, PABP polyA inh 12, Rce1 inhib inactive, eIF4H FP inh 5, CSC inhib 0 and MT1-MMP act inh RFP 0.
For Cc1cccc(NC(=O)COc2cccc3c2CCN(C)C3=O)c1 the results were MT1-MMP act inh 6, HIV Env fusion -6, PABP polyA inh -6, Yeast UUG start -11, Rce1 inhib inactive, eIF4H FP inh -1, CSC inhib 6 and MT1-MMP act inh RFP -6.
Screening O=C(CSc1nc2[nH]ncc2c(=O)[nH]1)Nc1cccc([N+](=O)[O-])c1 returned MT1-MMP act inh -2, Rce1 inhib inactive, CSC inhib 4 and MT1-MMP act inh RFP -1.
Screening O=C(Cc1ccc(Cl)cc1Cl)OCC(=O)c1ccc[nH]1 returned MT1-MMP act inh 4, HIV Env fusion -110, PABP polyA inh 0, Yeast UUG start -12, Rce1 inhib inactive, eIF4H FP inh 15, CSC inhib -4 and MT1-MMP act inh RFP 5.
`O=C1CN(C(=O)COC(=O)c2cc(S(=O)(=O)N3CCOCC3)ccc2Cl)c2ccccc2N1` gave MT1-MMP act inh -1, HIV Env fusion -12, PABP polyA inh -3, Yeast UUG start 2, Rce1 inhib inactive, eIF4H FP inh -9, CSC inhib -9 and MT1-MMP act inh RFP 5.
CN(C(=O)c1ccccc1Cl)c1ccccc1 was read as MT1-MMP act inh 2, HIV Env fusion -9, PABP polyA inh 6, Yeast UUG start -29, Rce1 inhib inactive, eIF4H FP inh 4, CSC inhib -12 and MT1-MMP act inh RFP 6.
COc1ccc(Cl)cc1C(=O)NC1CC(C)(C)NC(C)(C)C1 was read as MT1-MMP act inh 3, HIV Env fusion -3, Yeast UUG start -18 and MT1-MMP act inh RFP 4.
CCOc1ccc(S(=O)(=O)NCc2cccnc2)cc1C was read as MT1-MMP act inh 2, HIV Env fusion 2, PABP polyA inh 1, Yeast UUG start -4, Rce1 inhib inactive, eIF4H FP inh 6, CSC inhib 5 and MT1-MMP act inh RFP 2.
Cc1ccc(S(=O)(=O)N(C)CC(=O)O/N=C(\N)c2ccc([N+](=O)[O-])cc2)cc1 was read as MT1-MMP act inh 4, HIV Env fusion 19, PABP polyA inh 2, Yeast UUG start -4, Rce1 inhib inactive, eIF4H FP inh -1, CSC inhib -5 and MT1-MMP act inh RFP -6.
`CCCCN(CC)CCCNC(=O)c1cn(C)c2ccc(S(=O)(=O)N(C)C3CCCCC3)cc2c1=O` gave MT1-MMP act inh -6, HIV Env fusion -2, PABP polyA inh 4, Yeast UUG start -22, Rce1 inhib inactive, eIF4H FP inh 74, CSC inhib -5, eIF4H FP inh retest -4, PABP polyA inh retest 19 and MT1-MMP act inh RFP -1.
Cc1cc(C)nc(N2CCN(C(=O)c3ccc(S(=O)(=O)N4CCCCCC4)cc3)CC2)n1 was read as MT1-MMP act inh -7, HIV Env fusion -7, PABP polyA inh 4, Yeast UUG start 2, Rce1 inhib inactive, eIF4H FP inh -4, CSC inhib 0 and MT1-MMP act inh RFP -16.
`NC(=O)CC(NC(=O)Cc1ccc(Br)cc1)c1ccc(NC2CCCCCC2)c([N+](=O)[O-])c1` (stereo not drawn) gave MT1-MMP act inh 13, HIV Env fusion -3, PABP polyA inh -16, Yeast UUG start -4, Rce1 inhib inactive, eIF4H FP inh 4, CSC inhib 76* and MT1-MMP act inh RFP 3.
`COc1cc(-c2coc3c(C(=O)NCc4ccncc4)cccc23)ccc1O` gave MT1-MMP act inh -1, HIV Env fusion -24, Yeast UUG start -24 and MT1-MMP act inh RFP -23.
Cc1c(CC(=O)NCCC(=O)O)c(=O)oc2cc3occ(-c4ccccc4)c3cc12 was read as MT1-MMP act inh -3, HIV Env fusion 6, PABP polyA inh 18, Yeast UUG start -15, Rce1 inhib inactive, eIF4H FP inh -9, CSC inhib -21 and MT1-MMP act inh RFP 1.
Screening CN(Cc1ccccc1)c1nc2c(c(=O)[nH]c(=O)n2C)n1Cc1ccccc1 returned MT1-MMP act inh -6, HIV Env fusion -16, PABP polyA inh 2, Yeast UUG start -18, Rce1 inhib inactive, eIF4H FP inh 0, CSC inhib -3 and MT1-MMP act inh RFP -6.
Screening O=C(CSc1nnc(-c2ccc(C(F)(F)F)cn2)s1)c1ccc(Cl)cc1 returned MT1-MMP act inh -2, HIV Env fusion -1, PABP polyA inh 0, Yeast UUG start 0, Rce1 inhib inactive, eIF4H FP inh -7, CSC inhib -6 and MT1-MMP act inh RFP 5.
`COC(=O)CNC(=O)CCCCC(=O)NCC(=O)OC` gave MT1-MMP act inh 3, HIV Env fusion -10, PABP polyA inh -1, Yeast UUG start -11, Rce1 inhib inactive, eIF4H FP inh -2, CSC inhib 7 and MT1-MMP act inh RFP 2.
